VACV mCherry inh = inhibitors of vaccinia virus infection (mCherry reporter signal). 0.63% of 310,000 active. Potency, µM (series often up to 36.5 µM), without a hit: at the top dose activity change, negative = inhibition, usual class: inhibitors. Vaccinia virus mCherry reporter infection, fluorescence; about a quarter of the inactives have no number; active = well fitted inhibition curve with a large enough effect; inconclusive = small, poorly fitted or top-dose-only effect; inactive = no such curve, though single readings can be large or run the other way; tested in A549 cells; also: nearly all actives have a fitted effect of over 35% in size; inactives centre near -10
Vaccinia Venus = vaccinia inhibition (Venus reporter); Potency, µM (highest dose often 36.5 µM), inactives show at the highest dose activity change, negative = inhibition, actives largely listed as inhibitors; 0.46% of 330,000 active; Vaccinia virus Venus reporter expression, fluorescence; active means well fitted inhibition curve with a large enough effect; inconclusive means small, poorly fitted or top-dose-only effect; inactive means no such curve, though single readings can be large or run the other way; tested in A549 cells; also: nearly all actives have a fitted effect of over 30% in size; inactives centre near -10
Numbers without * were called inactive; i = inactive; ? = inconclusive; nt = no result given; & = joins results of further samples. % is scaled to controls: 0 for no effect and ±100 for the full control effect; potency is read from the fitted curve at half-maximal effect.

Structure,VACV mCherry inh,Vaccinia Venus
O=C(CSc1nc2c(c(=O)[nH]1)CCC2)Nc1ccccc1Cl,28%,6%
COc1c(O)cc(O)cc1O,-23%,-16%
O=C(Nc1cccc(Cl)c1)c1csc(COCCO)n1,-19%,-6%
Cc1cc(C)nc(SCc2csc(-c3ccccc3)n2)n1,-24%,-9%
Cc1ccc(SC[C@H](Cc2ccccc2)N2CCN(C)CCC2=O)cc1,i,5%
CC(=O)Nc1ccc(NC(=S)NC(=O)/C=C/c2ccccc2)cc1,-15%,-20%
O=C(COc1cccnc1[N+](=O)[O-])Nc1ccc(F)cc1,i,2%
COc1ccc(OC(C)c2ccc(C#N)c(=O)[nH]2)cc1 (stereo not drawn),-4%,-4%
COc1ccc(OC)c(NC(=O)COC(=O)Cc2ccc(Br)cc2)c1,i,-19%
CC(C)CC1C(=O)N(Cc2cn(CC3CCCCC3)nn2)CCS(=O)(=O)N1Cc1ccc(-c2cccc(C#N)c2)cc1 (stereo not drawn),-11%,-2%
COC(=O)c1sccc1NC(=O)c1cnc2cc(C)nn2c1C,i,-8%
Cc1ccc(C)c(S(=O)(=O)c2nnn3c2nc(NCc2cccs2)c2sccc23)c1,-29%,-29%
O=C(COCc1cc(-c2cccs2)on1)NCc1ccc(F)cc1,-16%,-9%
CCCNC(=O)C1(C)CCCN(C(=O)c2ccc3ccccc3c2)C1 (stereo not drawn),-5%,-3%
CCc1nnc(NS(=O)(=O)c2ccc(NC(=O)c3cccc(Br)c3)cc2)s1,-14%,-3%
COc1ccc(OC)c(CN2CCSCC2)c1,i,-16%
C=CCN1C(=O)C(CC(=O)Nc2ccc(C)cc2)SC1=Nc1c(C)n(C)n(-c2ccccc2)c1=O (stereo not drawn),-6%,-20%
COc1ccc(-c2csc(N3CCN(c4cc(C)nc5ccccc45)CC3)n2)cc1OC,?,-6%
CCCNC(=O)C1(C)CCN(C(=O)C(c2ccccc2)c2ccccc2)C1 (stereo not drawn),4%,-11%
Cc1onc(-c2ccccc2Cl)c1C(=O)Nc1nnc(-c2ccc(Br)cc2)s1,-18%,-1%
COc1ccc(Cn2c(O)c(/C=N/NC(=O)c3cccnc3)c3ccccc3c2=O)cc1,-11%,0%
COc1ccc2cc(/C(C)=N/NC(=O)C3CC3)ccc2c1,i,-7%
Cc1cc(C)n(CCOC(=O)C2C(C=C(Cl)Cl)C2(C)C)n1 (stereo not drawn),nt,-20%
CC(=O)NCCc1c[nH]c2ccc(O)cc12,-18%,-13%&-13%&-14%
CCOCCCn1c(=NC(=O)c2cccnc2)c(C(=O)OCC)cc2c(=O)n3ccccc3nc21,i,-8%&-11%
Cc1cc2ncn(/N=C/c3ccc([N+](=O)[O-])o3)c2cc1C,28µM*,16µM*
O=C(C(=O)N1CCN(c2ccc(F)cc2)CC1)N1CCCCC1,-1%,-18%
COc1ccc(-c2noc(CSc3nc(C)cc(=O)[nH]3)n2)cc1OC,16%,4%
Cc1ccccc1OCC(=O)NCCCNC(=O)c1ccccn1,i,-13%
Cc1cc2nc(CN(C)C(=O)C3CCC(=O)N(C4CCCC4)C3)[nH]c2cc1C (stereo not drawn),i,-4%
CCOC(=O)c1[nH]c(C)c(CCC(=O)Nc2ccc(Br)c(C)c2)c1C,-3%,-11%
Cc1cc(-c2ccccc2)cc(C)n1,-3%,3%
Cc1cc(N2CCCCC2)nc2ccc(NC(=O)/C=C/c3ccccc3OC(C)C)cc12,-21%,-19%
O=C(N/N=C1/CCS(=O)(=O)c2ccc(F)cc21)c1cccnc1,-2%,-4%
COc1ccccc1NCc1nnc(SCC(=O)N/N=C/c2ccco2)n1-c1ccc(Cl)cc1Cl,-2%,-6%
CC1=C(/C=C/C(C)=C/C=C/C(C)=C/C(=O)Nc2ccc(O)cc2)C(C)(C)CCC1,?,?
CC[N+](C)(C)CCN(Cc1ccc(Cl)cc1)c1ccccn1,-17%,-18%
CCN1C(=O)[C@H]2[C@@H](c3ccc(OC)cc3)N[C@]3(CCCN(Cc4ccc(Cl)cc4)C3=O)[C@H]2C1=O,-17%,-23%
CCN(CC)c1ccc(/C=N/NC(=O)CNC(=O)c2cccs2)cc1,-4%,2%
C=CC[C@@H](CC(=O)N(CCO)Cc1ccccc1)C(=O)NC[C@H](OC(=O)[C@@H](CC=C)Cc1ccc(F)cc1)c1ccccc1,-38%,?
CCOC(=O)c1c(C(=O)OCC)c(C)n(Cc2cc(OC)c(OC)c(OC)c2)c1C,-13%,-16%
COc1ccc(C(=O)N/C(=C\c2ccc3c(c2)OCO3)C(=O)N2CCOCC2)cc1,-13%,-1%
COc1ccc(/C=N/NC(=O)c2nc(-c3ccccc3)cc(-c3ccccc3)n2)cc1,nt,-26%
Cc1ccc(S(=O)(=O)NC(=O)COc2ccccc2C)cc1,nt,-6%
Cc1cccc(NC(NC(=O)c2ccccn2)C(Cl)(Cl)Cl)c1 (stereo not drawn),-6%,7%
Cc1ccc(N=C2C(=O)Nc3ccccc32)cc1C,-17%,-13%
CN(C)c1ccc(N2C(=O)CC(Nc3ccc(N4CCOCC4)cc3)C2=O)cc1 (stereo not drawn),nt,-17%
COC(=O)c1cc2oc3ccccc3c2n1Cc1cccc(C)c1,-14%,1%
Cc1cc(Nc2cccc(C(F)(F)F)c2)ncn1,-19%,-11%
O=C(CC1Sc2ccccc2NC1=O)NCc1cccc(Cl)c1 (stereo not drawn),-27%,-17%
O=C(NCCn1cc(SCc2ccc(Br)cc2)c2ccccc21)c1cccs1,-18%,-13%
C=C(C)CN1CCN(c2c(CCC#N)c(C)c(C#N)c3nc4ccccc4n23)CC1,nt,-13%
Cc1ccc(S(=O)(=O)N2CCOCC2)cc1NC(=O)CNC1CCCC1,i,0%
CCOc1ccc(NC(=O)Cn2c(=O)n(CC3CCCO3)c(=O)c3ccccc32)cc1 (stereo not drawn),-12%,-11%&0%
CCOc1ccccc1C(=O)N1CC(=O)Nc2ccc(Cl)cc2C1c1ccccc1 (stereo not drawn),-15%,-13%
COc1cc2[nH]c3c(Cl)ncnc3c2cc1OC,-10%,-29%
CC(OC(=O)/C=C/c1ccco1)C(=O)Nc1cccc([N+](=O)[O-])c1 (stereo not drawn),-23%,-29%
Cc1ccc(S(=O)(=O)NCCC(=O)Nc2nnc(C3CC3)s2)cc1C,-22%,-20%
CCSc1nnc2ccc(-c3ccc(OC)c(OC)c3)nn12,i,-18%
CCOC(=O)C1(Cc2ccccc2C)CCCN(C(=O)c2ccc(COC)o2)C1 (stereo not drawn),-19%,-15%

Remaining list, next part:
Structure,VACV mCherry inh,Vaccinia Venus
CC(C1CC1)N(Cc1ccccc1)C(=S)Nc1ccccc1 (stereo not drawn),-7%,-13%
O=C(Nc1csnn1)c1csnn1,i,-8%
COc1ccc(NC(=O)CSc2nc(-c3ccco3)cc(C(F)(F)F)n2)c(OC)c1,-16%,-21%
NC(=O)CC(NC(=O)Cc1cccc2ccccc12)c1ccc(N2CCc3ccccc3C2)c([N+](=O)[O-])c1 (stereo not drawn),?,?
Cc1ccccc1NC(=S)NCCO,-1%,-8%
COc1ccc(OC)c(NC(=O)Nc2c(C)n(C)n(-c3ccccc3)c2=O)c1,-3%,-1%
CCCNC(=O)COC(=O)c1ccc(Cl)c(S(=O)(=O)N2CCCC2)c1,-19%,-9%
COc1ccc(NC(=O)c2ccc(S(=O)(=O)N(C)C)cc2)cc1OC,nt,-7%
COc1ccc2c(CC(=O)OCC(=O)Nc3sc4c(c3C#N)CCC(C)C4)coc2c1 (stereo not drawn),-1%,-19%
Cc1cc(C(=O)OCC(=O)c2ccc3c(c2)OCCO3)c(C)o1,i,-15%
Cc1cc(C)c(NC(=O)CNC(=O)c2ccc(-n3cncn3)c([N+](=O)[O-])c2)c(C)c1,i,-18%
CC1=C(C(=O)N2CCOCC2)CC(CC(=O)NCC2CCCCC2)C(=O)N1Cc1ccc(F)cc1 (stereo not drawn),-21%,-29%
CCC(CO)Oc1cc(NC(=O)c2ccc(N)cc2)c2ncn(C(C)C)c2c1 (stereo not drawn),-17%,-13%
Cc1nn(CC(=O)NCCc2ccccc2)c(C)c1[N+](=O)[O-],-13%,-11%
COc1ccc(Cl)cc1NC(=O)c1cnc2sc(N3CCOCC3)nn2c1=O,-14%,-19%
COCCn1c(-c2ccc(OC(F)(F)C(F)C(F)(F)F)cc2)nc2c1c(=O)[nH]c(=O)n2CC(C)C (stereo not drawn),nt,-28%
COC(=O)[C@@]12CCCN1[C@H](c1ccc(-c3ccc(F)cc3)cc1)[C@H]1C(=O)N(C)C(=O)[C@H]12,0%,-16%
CCSc1nnc(NC(=O)CN2C(=O)N(C)C3(CCCCC3)C2=O)s1,i,-8%
NC(=O)CC(NC(=O)Cc1cccc2ccccc12)c1ccc(NCc2ccc(F)c(F)c2)c([N+](=O)[O-])c1 (stereo not drawn),-23%,?
CCOCCCNC(=O)c1c[nH]c2ccc(S(=O)(=O)Nc3cccc(Cl)c3C)cc2c1=O,3%,4%
CC(C)CCNC(=O)CN(CCN1CCOCC1)C(=O)Cn1nnc(-c2ccc(F)cc2)n1,i,-6%
Cc1onc(-c2c(Cl)cccc2Cl)c1C(=O)NCCc1ccncc1,i,-9%
O=C(NCc1ccc(F)cc1)c1ccc(Nc2nc3ccccc3n3nnnc23)cc1,-16%,-24%
CCCCNC(=O)c1ccc2c(c1)NC(=O)C(CS(=O)(=O)Cc1cccc(C)c1)N2 (stereo not drawn),-8%,4%
CCC(=O)NC(=S)Nc1ccc(S(=O)(=O)N2CCN(C)CC2)cc1,i,-6%
COc1ccc(Nc2nc(N)nc(CSCCO)n2)cc1,-29%,-17%
CNC(=O)C[C@@H]1C(=O)N(C2CCCCC2)CC1(C)C,i,-3%
Cc1ccsc1-c1nc(C(N)=O)c2[nH]c(=O)n(-c3ccc(Cl)cc3)c2n1,i,-14%
O=C(Cn1cncn1)c1ccccc1Br,-14%,-10%
COc1ccc(-c2cc(C#N)nc(N3CCN(C)CC3)n2)cc1,-4%,-13%
Cc1ccc(C2CC(=O)NC(SCC(=O)Nc3nccs3)=C2C#N)cc1 (stereo not drawn),nt,7%
NC(=O)CSc1nnc(Cn2c(=O)sc3ccccc32)n1-c1ccccc1,-13%,-5%
CCOC(=O)c1ccc(NC(=O)C2CCN(C(=O)c3ccc(OC)c(OC)c3)CC2)cc1,nt,?
Cc1cc(C(=O)NCc2nnc3n2CCN(Cc2ccc(C)c(C)c2)CC3)c(C)o1,-15%,-1%
O=c1[nH]c(-c2ccccc2)nnc1-c1ccccc1,i,-14%
Cc1ccc(CNc2nc(-c3ccco3)nn2S(=O)(=O)c2ccc3ccccc3c2)cc1,i,1%
CCCc1n(CC(O)COCc2ccccc2)c2ccccc2[n+]1C (stereo not drawn),i,-10%
O=[N+]([O-])c1cccc(-c2nnc3n2CCCCC3)c1,?,2%
CC(C)(C)c1ccc(/C=C/C(=O)NCCCn2ccnc2)cc1,-21%,-19%
O=C(CCCN1C(=O)/C(=C/c2cccs2)SC1=S)Nc1ccc(O)cc1,10µM*,?
Cc1ccc(C(c2sc3nc(C)nn3c2O)N2CCOCC2)cc1 (stereo not drawn),-28%,-13%
O=C(Nc1sc2c(c1C(=O)O)CCCCC2)c1ccccc1F,-4%,?
Cc1c(Cl)c([N+](=O)[O-])nn1CC(=O)Nc1c(C)n(C)n(-c2ccccc2)c1=O,nt,-27%
